Assay outcomes: PubChem BioAssay, Broad Institute
MLL AF4-AF9 inh = inhibitors of human MLL-AF4/AF9 interaction. P42568. AlphaScreen, biotin-AF4 peptide binding to FLAG-AF9. inhibition, % at 10 µM. 0.47% of 350,000 active. AID 651704;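 active means every replicate reaching a set inhibition limit, whatever the replicate mean, cut at about 25% in these data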;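 further: 0% = plate neutral control median and 100% = total signal loss; the record names both 10 and 1 µM as test concentration; the first replicate is given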
Target sequence (P42568 whole entry, looked up): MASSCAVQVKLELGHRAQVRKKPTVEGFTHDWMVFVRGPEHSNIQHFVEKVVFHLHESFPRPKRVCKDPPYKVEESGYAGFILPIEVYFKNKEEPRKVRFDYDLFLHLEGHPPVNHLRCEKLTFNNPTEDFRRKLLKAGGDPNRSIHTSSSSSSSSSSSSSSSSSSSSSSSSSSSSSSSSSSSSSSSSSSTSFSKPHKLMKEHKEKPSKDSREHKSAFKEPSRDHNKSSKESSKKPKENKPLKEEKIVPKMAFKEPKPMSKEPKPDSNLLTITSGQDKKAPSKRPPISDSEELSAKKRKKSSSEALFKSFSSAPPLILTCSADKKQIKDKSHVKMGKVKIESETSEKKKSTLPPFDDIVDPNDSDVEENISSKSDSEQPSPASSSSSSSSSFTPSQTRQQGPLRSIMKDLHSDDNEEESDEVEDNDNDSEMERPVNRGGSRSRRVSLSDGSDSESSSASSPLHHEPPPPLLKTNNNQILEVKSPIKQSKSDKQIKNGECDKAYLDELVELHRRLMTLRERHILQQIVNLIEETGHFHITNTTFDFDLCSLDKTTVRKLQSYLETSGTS
Ecoli rRNA inh = inhibitors of bacterial rRNA selective over humanized ribosomes; E. coli WT GFP vs humanized-ribosome RFP mutants, fluorescence, 24 h; active compounds read low; DMSO median 0, no signal -100; GFP signal change (wild-type ribosome), % (test concentration not listed); 1.6% of 350,000 active;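 active means significant combined selectivity score with lowered wild-type GFP, culture density cut under 30%, mutant RFP and density less affected; inactive means any of these conditions unmet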; further: one replicate is shown; some compounds called inactive have numbers as strong as hits
Ecoli rRNA inh OD600 = second read-out of Ecoli rRNA inh, no call of its own (marks repeat the call); OD600 change, %; measured here: OD600 growth;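 optical density of the mix in the first replicate; 0 = DMSO median and -100 = no signal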
Ecoli rRNA inh RFP = further read-out of Ecoli rRNA inh, marked with its call; RFP signal change, %; measured here: RFP humanized mutant strains;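 first replicate; 0 = DMSO median and -100 = no signal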
Active calls of the source: *; & = joins results of further samples. Some of the compounds tested; rates above refer to the full screens.

1) COc1ccc(NC(=O)Nc2ccc3c(c2)CC(=O)N([C@@H](C)CO)C[C@H](C)[C@@H](CN(C)S(=O)(=O)c2ccc(C)cc2)O3)cc1
2) Cn1cnc(S(=O)(=O)N2CC[C@@H]3[C@H](CO)Nc4ccc(C5=CCCCC5)cc4[C@@H]32)c1
3) COc1ccc(S(=O)(=O)N(C)C[C@@H]2Oc3cc(C4=CCCC4)ccc3S(=O)(=O)N([C@H](C)CO)C[C@@H]2C)cc1
4) O=C(C[C@H]1CC[C@@H]2[C@H](COC[C@H](O)CN2C(=O)c2ccccc2F)O1)N1CCCCC1
5) Cc1noc(C)c1S(=O)(=O)Nc1ccc2c(c1)C(=O)N([C@H](C)CO)C[C@@H](C)[C@@H](CN(C)Cc1ccccc1)O2
6) COc1ccc(S(=O)(=O)N(C)C[C@H]2Oc3ccc(NC(=O)C4CC4)cc3C(=O)N([C@@H](C)CO)C[C@@H]2C)cc1
7) CC(C)C(=O)Nc1cccc(COc2ccc(CN(CCc3ccccc3)C(=O)OC(C)(C)C)cc2)c1
8) C/C=C/c1ccc2c(c1)O[C@@H](CN(C)C(=O)CC1CC1)[C@H](C)CN([C@@H](C)CO)S2(=O)=O
9) O=C(C[C@@H]1CC[C@H](NC(=O)Cc2cccnc2)[C@@H](CO)O1)Nc1ccc(-c2ccccc2)cc1
10) CSc1ccc(C(O)c2ncc(-c3cccc(OCc4ccccc4)c3)[nH]2)cc1 (configuration not stated)
Screen / compound no.	1	2	3	4	5	6	7	8	9	10
MLL AF4-AF9 inh	-7.1	17	-1.2	1.5	3.3	-1.4	-0.3	0.0	-2.1	1.7
Ecoli rRNA inh	0	1	0	1	1	4	6	0	-6	-11
Ecoli rRNA inh OD600	3	-1	7	9	-1	0	11	-4	-8	-44
Ecoli rRNA inh RFP	1.5	0.7	-0.2	-1.7	-1.9	-1.4	-0.7	-1.2	0.4	37

11) CN1[C@@H]2c3ccc(/C=C/c4ccccc4)c(=O)n3C[C@H]1[C@H](CO)[C@H]2C(=O)NC1CCCCC1
12) Cc1ccc(S(=O)(=O)N2[C@@H](CO)CO[C@H]2CC(=O)c2ccccc2)cc1
13) COCC(=O)N(C)C[C@@H]1Oc2cc(-c3ccccc3)ccc2S(=O)(=O)N([C@H](C)CO)C[C@@H]1C
14) COc1ccc(S(=O)(=O)N(C)C[C@H]2Oc3c(NC(=O)Nc4ccc(C(F)(F)F)cc4)cccc3C(=O)N([C@H](C)CO)C[C@H]2C)cc1
15) CCC(=O)Nc1ccc2c(c1)OC[C@@H](C)N(C(=O)CN1CCOCC1)C[C@@H](C)[C@@H](OC)CN(C)C2=O
16) O=C1CN(S(=O)(=O)c2ccccc2)C[C@H]2[C@@H](c3ccc(C#Cc4ccccc4)cc3)[C@H](CO)N12
17) O=C(NCCc1ccc(O)c(Br)c1)c1ccc(Br)o1
18) CCOc1ccc(CCN2C(=O)C(=O)N([C@@H](CC(C)C)CN3CCC[C@H]3CN3C(=O)C(=O)NC[C@@H]3CC(C)C)C[C@@H]2Cc2ccc(O)cc2)cc1
19) CC(C)NC(=O)Nc1ccc2c(c1)C(=O)N([C@@H](C)CO)C[C@H](C)[C@H](CN(C)C(=O)NC(C)C)OCCCC[C@@H](C)O2
20) C[C@H]1CN([C@@H](C)CO)C(=O)c2cc(NC(=O)CCCN(C)C)ccc2O[C@H]1CN(C)S(C)(=O)=O
Screen / compound no.	11	12	13	14	15	16	17	18	19	20
MLL AF4-AF9 inh	-7.7	0.1	-1.7	-2.0	2.1	-2.0	0.9	0.9	-4.6	-3.7
Ecoli rRNA inh	-2	4	-5	3	0	0	-15	-9	5	3
Ecoli rRNA inh OD600	-1	0	-8	14	-3	-17	-17	-12	11	1
Ecoli rRNA inh RFP	0.5	2.9	-1.1	-1.3	-3.1	13	-13	3.7	-3.5	0.6

21) C[C@H](CO)N1C[C@H](C)[C@@H](CN(C)Cc2ccncc2)Oc2cc(-c3ccccc3)ccc2S1(=O)=O
22) C[C@@H]1CN([C@H](C)CO)C(=O)c2cc(NC(=O)CCCCCC(=O)Nc3ccccc3N)ccc2O[C@@H]1CN(C)Cc1ccc(C(F)(F)F)cc1
23) C[C@H](CO)N1C[C@H](C)[C@@H](CN(C)CC2CCCCC2)Oc2ccc(NS(=O)(=O)c3cn(C)cn3)cc2C1=O
24) C[C@@H]1CN([C@@H](C)CO)C(=O)c2cccc(NC(=O)C3CCOCC3)c2O[C@H]1CN(C)CC1CCCCC1
25) COc1ccc(CN(C)C[C@@H]2OCCCC[C@H](C)Oc3ccc(NC(=O)NC4CCCCC4)cc3C(=O)N([C@H](C)CO)C[C@H]2C)cc1
26) Cc1cc(C(=O)Nc2cccc3c2O[C@@H](CN(C)S(=O)(=O)c2ccc(F)cc2)[C@@H](C)CN([C@H](C)CO)C3=O)n(C)n1
27) CO[C@H]1CN(C)C(=O)c2ccc(NC(=O)C3CCC3)cc2OC[C@@H](C)N(Cc2nccs2)C[C@@H]1C
28) CN(C)C(=O)C[C@H]1CC[C@@H]2[C@@H](COc3ccc(NC(=O)C4CCC4)cc3C(=O)N2C)O1
29) CC(=O)Nc1ccc2c(c1)C(=O)N(C)[C@@H]1CC[C@@H](CC(=O)NCc3ccccc3Cl)O[C@H]1CO2
30) CC(C)C#Cc1ccc2c(c1)O[C@@H](CN(C)C(=O)Nc1ccccc1)[C@H](C)CN([C@@H](C)CO)S2(=O)=O
Screen / compound no.	21	22	23	24	25	26	27	28	29	30
MLL AF4-AF9 inh	-1.9	1.5	-3.8	-0.6	4.2	-3.2	-0.4	-0.9	-1.5	1.8
Ecoli rRNA inh	-37	-6	5	-4	-1	-6	-3	0	6	-3
Ecoli rRNA inh OD600	-48	-17	8	-8	-1	4	-2	-2	-1	-10
Ecoli rRNA inh RFP	6.9	5.0	-0.8	2.1	-1.7	0.1	-2.2	-5.1	-3.3	0.3

31) COc1ccc(-c2ccc(CN3C(C(C)C)C(=O)N(Cc4cn(Cc5ccco5)nn4)CCS3(=O)=O)cc2)cc1OC (configuration not stated)
32) Cc1noc(C)c1S(=O)(=O)N(C)C[C@@H]1OCCCC[C@@H](C)Oc2ccc(NS(=O)(=O)c3cccs3)cc2C(=O)N([C@H](C)CO)C[C@@H]1C
33) CCNC(=O)C[C@@H]1CC[C@H]2[C@@H](COC[C@@H](O)CN2S(=O)(=O)c2ccccc2F)O1
34) O=C(CCN1CCCCC1)N[C@@H]1CC[C@@H](CCNC(=O)c2cc(Cl)cc(Cl)c2)O[C@@H]1CO
35) C[C@@H]1CN([C@H](C)CO)C(=O)Cc2cc(NC(=O)Cn3cnnn3)ccc2O[C@@H]1CN(C)Cc1ccc(Oc2ccccc2)cc1
36) CO[C@@H]1CN(C)C(=O)c2cc(NC(=O)c3cnccn3)ccc2OC[C@H](C)N(C)C[C@H]1C
37) COc1ccc2c3c([nH]c2c1)[C@@H](CO)N(C(=O)C1CCCCC1)CC31CN(S(C)(=O)=O)C1
38) COc1ccc(NC(=O)N2[C@@H]3CNC[C@H]2C3c2ccc(-c3ccc(C)cc3)cc2)cc1 (some centres not stated)
39) C[C@@H]1CN([C@H](C)CO)C(=O)c2cc(NC(=O)Cc3ccccc3)ccc2O[C@H]1CN(C)S(=O)(=O)c1ccccc1
40) Cc1ccc(S(=O)(=O)N(C)C[C@H]2Oc3ccc(NS(C)(=O)=O)cc3CC(=O)N([C@@H](C)CO)C[C@H]2C)cc1
Screen / compound no.	31	32	33	34	35	36	37	38	39	40
MLL AF4-AF9 inh	-0.6	-2.8	6.2	1.1	7.2	-1.2	-1.4	13&6.2	-1.3	-8.1
Ecoli rRNA inh	-4	-1	3	3	0	-2	-2	-61&3	-1	2
Ecoli rRNA inh OD600	-4	0	3	1	-10	3	3	-77&0	-3	0
Ecoli rRNA inh RFP	-1.2	1.9	-2.2	1.2	3.0	-1.7	-0.1	-19&8.0	-0.3	3.5

41) COc1ccccc1NS(=O)(=O)c1cccc(C(=O)NCC(c2cccs2)N(C)C)c1 (configuration not stated)
42) COC(=O)C[C@H]1CC[C@H]2[C@H](COc3ccc(NC(=O)c4cccc(OC)c4)cc3C(=O)N2C)O1
43) Cc1ccc(S(=O)(=O)N(C)C[C@@H]2Oc3c(NC(=O)Nc4ccc(F)cc4)cccc3C(=O)N([C@H](C)CO)C[C@H]2C)cc1
44) O=C(C[C@H]1C[C@@H]2c3cc(NC(=O)Nc4ccc(F)cc4)ccc3O[C@@H]2[C@@H](CO)O1)NCC(F)(F)F
45) CC(C)NC(=O)Nc1ccc2c(c1)CC(=O)N([C@H](C)CO)C[C@H](C)[C@H](CN(C)C(=O)NC(C)C)O2
46) O=C(NCC1CC1)[C@@H]1[C@@H](CO)[C@@H]2Cn3c(ccc(-c4ccccc4F)c3=O)[C@H]1N2Cc1ccccc1
47) Cc1cc(S(=O)(=O)Nc2ccc(C(=O)NC3CC3)cc2)ccc1F
48) COc1ccc(NC(=O)N2C[C@@H](O)COC[C@H]3O[C@H](CC(=O)N4CCCCC4)CC[C@@H]32)cc1
49) CCCNC(=O)C[C@@H]1CC[C@H]2[C@@H](COC[C@H](O)CN2Cc2ccccc2F)O1
50) COc1ccc(S(=O)(=O)Nc2ccc3c(c2)C(=O)N([C@H](C)CO)C[C@@H](C)[C@H](CN(C)C(=O)Nc2ccc(F)cc2)OCCCC[C@H](C)O3)cc1
Screen / compound no.	41	42	43	44	45	46	47	48	49	50
MLL AF4-AF9 inh	2.5	0.0	3.2	-2.1	-0.6	-0.2	2.9	1.1	-0.2	2.9
Ecoli rRNA inh	2	-4	0	3	4	-3	1	-2	-1	1
Ecoli rRNA inh OD600	-7	1	1	-3	0	-9	-2	0	6	4
Ecoli rRNA inh RFP	-1.0	-1.9	-5.3	-3.9	0.7	2.5	-1.0	2.9	-4.6	10.0

51) CC(=O)N1[C@H](CO)[C@@H]2c3ccccc3N(S(=O)(=O)c3ccccc3)C[C@@H]21
52) CCCNC(=O)N[C@H]1C=C[C@H](CC(=O)NC2CCC2)O[C@H]1CO
53) C[C@@H]1CN([C@H](C)CO)C(=O)Cc2cc(NC(=O)CCC(F)(F)F)ccc2O[C@@H]1CN(C)S(=O)(=O)c1ccc(Cl)cc1
54) CCC(=O)N1C[C@H](O)COC[C@@H]2O[C@@H](CC(=O)NC)CC[C@H]21
55) N#C[C@H]1[C@@H](c2ccc(C#CC3CCCCC3)cc2)[C@@H](CO)N1C(=O)Nc1ccc(F)cc1
56) CC(C)CC1OC(C)CC2=C1C(=O)OC(C)(C)O2 (configuration not stated)
57) Cc1ccc(S(=O)(=O)N[C@H]2C=C[C@H](CC(=O)N3CCc4ccccc4C3)O[C@H]2CO)cc1
58) C[C@H]1CN([C@@H](C)CO)C(=O)Cc2cc(NC(=O)Cc3cn(C)c4ccccc34)ccc2O[C@H]1CN(C)Cc1ccc(C(=O)O)cc1
59) Cc1noc(C)c1S(=O)(=O)Nc1ccc2c(c1)CC(=O)N([C@H](C)CO)C[C@@H](C)[C@H](CN(C)C(=O)NC1CCCCC1)O2
60) COc1ccc(NC(=O)Nc2ccc3c(c2)C(=O)N([C@@H](C)CO)C[C@@H](C)[C@@H](CN(C)Cc2ccc(Cl)c(Cl)c2)OCCCC[C@@H](C)O3)cc1
Screen / compound no.	51	52	53	54	55	56	57	58	59	60
MLL AF4-AF9 inh	0.9	2.0	-1.7	-2.5	1.7	-0.4	-1.9	-1.7	-0.9	2.9
Ecoli rRNA inh	0	0	-1	5	-5	28	-3	2	5	0
Ecoli rRNA inh OD600	-1	0	-1	25	-13	18	-11	-3	9	3
Ecoli rRNA inh RFP	-1.5	-1.7	-0.2	-2.1	-2.4	1.3	-3.0	-1.5	1.1	2.2

Shown as labelled records: part of the list above
60. COc1ccc(NC(=O)Nc2ccc3c(c2)C(=O)N([C@@H](C)CO)C[C@@H](C)[C@@H](CN(C)Cc2ccc(Cl)c(Cl)c2)OCCCC[C@@H](C)O3)cc1
  MLL AF4-AF9 inh: 2.9 | Ecoli rRNA inh: 0 | Ecoli rRNA inh OD600: 3 | Ecoli rRNA inh RFP: 2.2
57. Cc1ccc(S(=O)(=O)N[C@H]2C=C[C@H](CC(=O)N3CCc4ccccc4C3)O[C@H]2CO)cc1
  MLL AF4-AF9 inh: -1.9 | Ecoli rRNA inh: -3 | Ecoli rRNA inh OD600: -11 | Ecoli rRNA inh RFP: -3.0
59. Cc1noc(C)c1S(=O)(=O)Nc1ccc2c(c1)CC(=O)N([C@H](C)CO)C[C@@H](C)[C@H](CN(C)C(=O)NC1CCCCC1)O2
  MLL AF4-AF9 inh: -0.9 | Ecoli rRNA inh: 5 | Ecoli rRNA inh OD600: 9 | Ecoli rRNA inh RFP: 1.1

(further entries)
61) CN1c2ccc(-c3cccc(C#N)c3)cc2[C@H]2[C@H](CCN2C(=O)Cc2ccccn2)[C@H]1CO
62) CCNC(=O)[C@H]1[C@H](CO)[C@H]2Cn3c(ccc(-c4cncnc4)c3=O)[C@H]2N1C(=O)NC1CCCC1
63) CCOP(=O)(OCC)C(Cc1ccc(OC)c(OC)c1)N=C(c1ccccc1)c1ccccc1 (configuration not stated)
64) C[C@H](CO)N1C[C@H](C)[C@H](CN(C)Cc2ccc(C(=O)Nc3ccccc3N)cc2)OCc2cnnn2CCCC1=O
65) CC(C)NC(=O)Nc1ccc2c(c1)CC(=O)N([C@@H](C)CO)C[C@@H](C)[C@@H](CN(C)C(=O)NC(C)C)O2
Screen / compound no.	61	62	63	64	65
MLL AF4-AF9 inh	-8.9	0.1	4.8	4.0	0.8
Ecoli rRNA inh	0	-3	-4	-1	3
Ecoli rRNA inh OD600	0	5	-13	-1	10
Ecoli rRNA inh RFP	-2.2	-1.6	1.3	-1.7	-2.6
